GLA inh pH 4.5: blocks human alpha-galactosidase A at pH 4.5; 230,000 tested, under 10 active; activity change, negative = inhibition, % at 105 µM; purified enzyme, 4-MU-alpha-Gal fluorescence, pH 4.5; P06280; inconclusive = small, poorly fitted or top-dose-only inhibition, or a rising curve; inactive = flat fitted curve, though single readings scatter; no compound was filed as active;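 further: 0% = full activity with enzyme and -100% = basal without enzyme; dose as in the result columns while the protocol names 77 µM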
Target sequence (P06280 whole entry, looked up): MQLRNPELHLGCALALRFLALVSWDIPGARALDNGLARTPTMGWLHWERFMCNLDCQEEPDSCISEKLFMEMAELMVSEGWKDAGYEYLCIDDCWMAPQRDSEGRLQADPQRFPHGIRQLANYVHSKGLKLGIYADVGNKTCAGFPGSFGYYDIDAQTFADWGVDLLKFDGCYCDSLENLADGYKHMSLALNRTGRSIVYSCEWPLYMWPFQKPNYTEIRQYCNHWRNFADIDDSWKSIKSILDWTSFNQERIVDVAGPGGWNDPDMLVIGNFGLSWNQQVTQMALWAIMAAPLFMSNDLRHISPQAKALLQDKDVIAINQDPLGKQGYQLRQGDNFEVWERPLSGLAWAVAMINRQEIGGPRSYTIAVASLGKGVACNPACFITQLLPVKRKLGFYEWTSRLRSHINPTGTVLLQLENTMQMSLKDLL
Rango complex inh: Rango-importin beta binding inhibition; Rango CFP/YFP FRET sensor + importin beta, 45 min; Potency, µM (top dose mostly 92.2 µM), for inactives: at the highest dose inhibition of complex formation; 0.031% of 340,000 active; AID 540263; active = rising FRET ratio curve, often small or poorly fitted; inconclusive = mostly compound fluorescence or quenching in the first reads; inactive = flat curves in all reads;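 further: potency means the concentration at half of the fitted maximal effect; 0% = DMSO wells and 100% = buffer wells lacking importin beta; nearly all actives have a fitted effect of over 15% in size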
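FRET biosensor Rango (snurportin 1 IBB between N-terminal EYFP and C-terminal Cerulean), 50 nM in PBS/1 mM DTT/0.02% Tween-20/0.1% BSA, preincubated 5 min RT with compound; 0.125 microM importin beta added, 45 min RT, CFP/YFP FRET ratio read.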
Rango dissoc inh: inhibitors of RanGTP-induced Rango-importin beta complex dissociation | AID 540253 | 0.071% of 340,000 active | Potency, µM (top dose mostly 46.1 µM), for the others: top-dose activity change, negative = inhibition | Biochemical FRET Rango-importin beta, RanGTP-induced dissociation | O95149+P62826; active means falling FRET ratio curve, often poorly fitted, with flat reads before Ran was added; inconclusive means other falling curves, or compound fluorescence or quenching; inactive means flat or rising ratio curve;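 further: potency means the concentration at half of the fitted maximal effect; % of control where 0% means no effect; nearly all actives have a fitted effect of over 45% in size; -100% = wells without RanGTP and RCC1; the record marks most hits as doubtful in a second field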
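Compounds sat 5 min at room temperature with 0.1 uM Rango biosensor plus 0.25 uM importin beta, then FRET pre-read. RanGTP-RCC1 (0.6 uM Ran, 2mM GTP, 0.2 uM RCC1) added for 45 min, and the CFP/YFP post-read measured blocked complex dissociation.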
miR-21 reporter: miR-21 reporter, rising signal; HeLa miR-21 FLuc reporter, luciferase, 48 h; AID 2288; Potency, µM (titrated, usually from 38.3 µM), inactives show top-dose reporter change, positive = more light; 340,000 tested, under 10 active; active = well fitted rising curve with a large enough effect; inconclusive = small, poorly fitted or top-dose-only effect; inactive = no such curve, though single readings can be large or run the other way;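 further: % of control where 0% means no effect; miR-21 action dims this reporter so a rising signal means less miR-21 action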
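Using DMEM plus 10% FBS, HeLa miR-21-FLuc cells are incubated with test compounds (final up to about 40uM) for 48 hours; firefly luciferase signal is then imaged following reagent-mediated lysis.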
* marks the source's active call; other numbers are inactive results; ? = inconclusive; . = no result given; & = joins results of further samples.

SMILES	GLA inh pH 4.5	Rango complex inh	Rango dissoc inh	miR-21 reporter
Cc1cc(=O)oc2c(C)c(OCC(=O)N3CCN(Cc4ccccc4)CC3)ccc12	.	-1.6%	-25.7%	2.1%
CN1CCN(/N=C/c2c(O)n(CCC3=CCCCC3)c(=S)[nH]c2=O)CC1	-1.1	?	?	0.0%
Cc1ccc(N2C(=O)NC(=O)C3(Cc4ccccc4N4CCN(c5ccccc5)CC43)C2=O)cc1 (stereo not drawn)	3.0	-0.2%	-17.2%	-24.4%
Clc1ccc(N2CCNCC2)nn1	-2.3	2.1%	-9.5%	-1.7%
O=c1[nH]c(=O)n(-c2ccccc2F)c(O)c1C=NCCC1=CCCCC1	6.6	?	6.7%	-8.0%
Clc1cccc(CNCCc2c[nH]c3ccccc23)c1	.	-0.2%	1.9%	-4.9%
Cc1cccc(NC2=NCCCS2)c1	-17.0	2.4%	6.4%	-14.6%
NCCc1c[nH]c2ccc(C(N)=O)cc12	2.6&4.0	1.1%	16.1%	.
CC(C)C(=O)Nc1ccc(N2CCN(C)CC2)c(F)c1	-13.3	3.2%	6.2%	-17.5%
O=c1[nH]c(=S)n(Cc2ccc(F)cc2)c(O)c1C=NCCCn1ccnc1	1.9	0.0%	0.1%	-1.0%
O=c1[nH]c(=O)n(C2CCCCCC2)c(O)c1C=NCc1cccnc1	0.1	0.4%	3.6%	-0.1%
O=C(Nc1ccc(Cl)cc1)OC1CN2CCC1CC2 (stereo not drawn)	1.8	4.2%	13.1%	-30.9%
N#Cc1c(Cl)nc(Cl)c2c1CCN(Cc1ccccc1)C2	?	?	5.17µM*	6.8%
CCCCn1c(O)c(/C=N/N2CCOCC2)c(=O)[nH]c1=S	5.6	-1.5%	-5.2%	4.0%
COC(=O)C1=C(c2ccc(C(C)=O)cc2)C[C@@H]2CC[C@H]1N2C(=O)NCCOc1ccccc1Cl	.	0.4%	-7.0%	.
Cn1c(O)c(C(=N)COc2ccccc2)c(=O)n(C)c1=O	9.7	2.3%	9.3%	-1.8%
C#CCOCCOCCOCCNc1nc(N2CCN(C(=O)CCCCCCCCCCNC(=O)[C@H]([C@@H](C)CC)n3cc(CCCCN=C(N)N)nn3)CC2)nc(N2CCN(C(=O)CCCCCCCCCCNC(=O)[C@H](CO)n3cc(CCCCCN)nn3)CC2)n1	.	73.1µM*	?	.
CN(C)c1ccc(C(=O)N/N=C/C23CC[C@@H](O)CC2(O)CC[C@@H]2[C@@H]3CCC3(C)C(C4=CC(=O)OC4)CCC23O)cc1 (stereo partly drawn)	0.5	0.0%	-7.1%	?
CC1=C[C@@H]2c3cccc4[nH]cc(c34)C[C@H]2N(C)C1	.	?	?	-2.6%
c1ccc(-c2nnc(C3CC(c4cccnc4)=NO3)o2)cc1 (stereo not drawn)	7.6	4.3%	-6.4%	-9.1%
CC(C#N)CCC#N (stereo not drawn)	.	-2.2%	7.4%	.
Cc1ccc2c(c1)cc1c(=O)n(CC(=O)N3CCC4(CC3)OCCO4)nc(C)n12	.	0.0%	-23.5%	-2.4%
Cc1ccccc1NC1(C#N)CCCCC1	-4.6	0.5%	-7.1%	-0.4%
COc1ccccc1CCNC1CCCCCC1	.	1.0%	10.2%	0.7%
CC(C)NC(C)Cc1ccc(I)cc1 (stereo not drawn)	-8.0	-1.6%	8.0%	.
O=P(O)(Oc1ccccc1)OC(c1ccccc1)C(F)(F)F (stereo not drawn)	1.1	6.1%	3.0%	-2.4%
CCc1n[nH]c(CCN)n1	1.5	1.2%	-3.8%	-6.8%
CC(C)(C)C(O)C(Oc1ccc(Cl)cc1)n1cncn1 (stereo not drawn)	2.5	0.3%	3.2%	-4.1%
CN1CC(C(=O)c2ccc(Cl)cc2)C(c2ccc(Cl)cc2Cl)C1 (stereo not drawn)	.	0.3%	-6.6%	-6.0%
COC(=O)c1ccc(NC(=O)NC(=O)Oc2ccccc2)cc1	.	0.1%	1.6%	.
COc1cc2c(cc1OC)C1[C@H]3C(=CC[C@H]1OC2O)CCN3C (stereo partly drawn)	.	-0.4%	0.0%	.
Cc1ccccc1NC(=O)Cc1nc(COC(=O)Cc2ccccc2)cs1	.	-1.4%	29.4%	.
COC(=O)C1=C(C)N(Cc2ccco2)C(=O)/C1=C\c1ccc(N(C)C)cc1	-2.7	?	-13.4%	0.5%
COc1ccc(NC(=O)O/N=C/c2ccccc2)cc1	.	3.9%	13.6%	-58.3%
CSc1ncc(/C=C2/C(=O)NC(=O)N(C)C2=O)cn1	-9.5	-3.5%	8.9%	-2.5%
CCCC(C)C(=O)NC1CCSC1=O (stereo not drawn)	12.3	0.4%	-1.5%	-2.8%
C[C@]12CC[C@H]3[C@@H](CCC4=CC(=O)CC[C@@H]43)[C@@H]1CC[C@@H]2O	-4.4	-1.3%	-5.9%	.
CC1NCCC2(O)CCCCC12 (stereo not drawn)	2.2	1.2%	7.3%	2.0%
Oc1ccccc1C1NCc2ccccc2-n2cccc21 (stereo not drawn)	.	3.7%	16.6%	-9.8%
S=P(Nn1cnnc1)(c1ccc(Br)cc1)c1ccc(Br)cc1	2.0	-1.6%	-11.1%	-2.4%

Some of the entries so far, as comma-separated lines:
SMILES,GLA inh pH 4.5,Rango complex inh,Rango dissoc inh,miR-21 reporter
Cc1ccccc1NC1(C#N)CCCCC1,-4.6,0.5%,-7.1%,-0.4%
COc1ccc(NC(=O)O/N=C/c2ccccc2)cc1,.,3.9%,13.6%,-58.3%
CSc1ncc(/C=C2/C(=O)NC(=O)N(C)C2=O)cn1,-9.5,-3.5%,8.9%,-2.5%
CCc1n[nH]c(CCN)n1,1.5,1.2%,-3.8%,-6.8%
CC(C#N)CCC#N (stereo not drawn),.,-2.2%,7.4%,.

Additional results follow:
SMILES	GLA inh pH 4.5	Rango complex inh	Rango dissoc inh	miR-21 reporter
CCOP(=S)(OCC)Oc1cc(C)oc(=O)c1	-1.0	-2.8%	12.4%	-3.1%
CC(C)C(=O)Nc1ccc(S(=O)(=O)N2CC3CC(C2)c2cccc(=O)n2C3)cc1 (stereo not drawn)	3.4	-3.2%	45.6%	-2.4%
C[N+]1(CC2COC(c3ccco3)O2)CCCCC1 (stereo not drawn)	1.2	0.1%	41.5%	1.5%
CC(=NCCCO)c1c(O)n(Cc2ccccc2)c(=O)[nH]c1=O	1.4	-2.7%	-13.8%	-5.0%
Cc1c(C)c2cc(Cl)c(OCC(=O)N3C[C@H]4C[C@@H](C3)c3cccc(=O)n3C4)cc2oc1=O	.	-2.6%	21.2%	-3.6%
C=CCn1c(O)c(/C=N/NC(=O)c2ccncc2)c(=O)[nH]c1=O	-9.9	4.3%	-4.3%	6.7%
COc1cccc(OC)c1C(=O)NC(=S)N1C[C@H]2C[C@H](C1)c1cccc(=O)n1C2	.	-2.5%	-4.1%	3.5%
CCOCCCNC(=O)CN1C2CCC1CC(O)(c1ccc(OC)cc1)C2 (stereo not drawn)	2.6	-1.2%	-0.8%	-2.6%
O=CC(Cl)P(=O)(N1CCCCC1)N1CCCCC1 (stereo not drawn)	5.6	-0.3%	0.8%	-4.5%
COc1ccccc1-n1c(-c2ccoc2)nc2ccccc2c1=O	1.1	1.4%	1.3%	-8.7%
CN1c2ccc([N+](=O)[O-])cc2CC2(C(=O)NC(=O)NC2=O)C1c1ccccc1 (stereo not drawn)	-12.3	6.3%	22.3%	0.6%
Cc1nn(Cc2ccccc2)c(C)c1C(=O)OCC(=O)Nc1cc(S(C)(=O)=O)ccc1Cl	10.4	1.0%	-1.9%	1.2%
Cc1nn(Cc2c(Cl)cccc2Cl)c(Cl)c1C(=O)O	5.0	0.1%	-1.5%	2.5%
O=C(CSCC(=O)N1CCOCC1)Nc1nc(-c2ccc3c(c2)OCO3)cs1	-2.1	3.6%	15.0%	-46.4%
CCCCC(=O)N/N=C/c1c(O)n(CCc2ccccc2)c(=O)[nH]c1=O	0.9	-3.6%	0.1%	3.1%
CCCCn1c(=O)c(C(=O)Nc2ccccc2S(N)(=O)=O)c(O)c2ccccc21	4.8	-2.5%	-9.1%	4.7%
COc1ccccc1N1CCN(Cc2ccc(SC)cc2)CC1	.	-6.1%	1.4%	12.2%
CCN(CC)C(=O)c1ccc2c(c1)C1C(Cl)C(Sc3ccccc3[N+](=O)[O-])CC1C(C(=O)O)N2 (stereo not drawn)	-9.3	-7.0%	-23.9%	2.8%
COc1ccc(-c2nc(CS(=O)CC(=O)N3CCC4(CC3)OCCO4)c(C)o2)cc1 (stereo not drawn)	7.6	-0.2%	2.3%	0.9%
COC(=O)C1=C(c2ccc(OC)c(OC)c2)C[C@@H]2CC[C@H]1N2C(=O)NCc1ccco1	.	1.0%	-12.4%	.
CSCc1nnc2n1-c1ccc(Cl)cc1C(c1ccccc1)=NC2	-1.2	2.3%	0.9%	9.8%
O=C(c1ccccc1F)c1cn(CC(=O)N2CCCC2)c2ccccc12	4.1	-1.4%	-2.7%	1.4%
O=c1[nH]c(O)c(C=Nc2cc(F)cc(F)c2)c(=O)[nH]1	.	-0.3%	-7.4%	1.5%
CCc1ccccc1NC(=O)CNC1CCCCC1	10.5	0.0%	0.0%	-6.1%
CC(N)C(=O)c1ccco1 (stereo not drawn)	-1.3	-2.2%	-19.4%	-4.0%
CN(C)C(Cc1ccccc1)C(=O)c1c[nH]c2ccccc12 (stereo not drawn)	.	0.7%	3.0%	-21.1%
O=C(c1ccccc1)c1ccccc1N=Cc1c(O)[nH]c(=O)[nH]c1=O	9.4	1.8%	-6.6%	-1.0%
CN(C)P(=S)(Nc1ccccc1)C(Cl)(Cl)Cl (stereo not drawn)	-6.7	-2.2%	1.7%	0.3%
O=C1NC(=S)N(c2ccc(Br)cc2)C(=O)/C1=C/N1CCN(C(=O)c2ccco2)CC1	1.2	?	-19.1%	-1.1%
CCCCc1ccc2[nH]cc(CCN)c2c1	-1.2	3.1%	-0.2%	-6.4%
CCC1(CC)C(=O)NC(=O)N(CCc2ccccn2)C1=O	.	-0.1%	42.5%	.
CCOC(=O)CNC(=O)CSP(=S)(OCC)OCC	2.5	1.1%	0.9%	-0.1%
Nc1c(C(=O)NCCc2ccccc2)c2nc3ccccc3nc2n1CCN1CCOCC1	-5.2	?	?	13.5%
Cc1ccc2c(c1)=C/C(=C\c1c(O)[nH]c(=O)[nH]c1=O)C(=O)N=2	10.6	?	?	-1.3%
COC(=O)C1=C(c2ccc(Cl)c(C(F)(F)F)c2)C[C@@H]2CC[C@H]1N2C(=O)NC1CC1	.	-3.1%	7.5%	.
O=[N+]([O-])c1ccc(Sc2nc3ccccc3o2)c([N+](=O)[O-])c1	1.4	0.0%	0.8%	?
COc1ccc(C(=O)N2C[C@H]3C[C@@H](C2)c2cccc(=O)n2C3)cc1OC	.	-2.4%	-6.7%	-3.7%
C[N+]12CCC(CC1)C(C#N)(N1CCOCC1)C2 (stereo not drawn)	1.3	1.2%	-7.3%	-0.2%
Cn1c(O)c(/C=N/N2CCOCC2)c(=O)n(C)c1=S	0.9	?	-12.7%	5.7%
CCCCCCC(C)(C)c1ccc([C@@H]2C[C@H](O)CC[C@H]2CCCO)c(O)c1	-18.3	0.1%	-8.2%	.
Cc1ccc(-c2cc(-c3ccc(C)cc3)[n+](-c3ccc(C(=O)[O-])cc3)c(-c3ccc(C)cc3)c2)cc1	.	3.2%	15.8%	.
O=C(Cn1cc(C(=O)c2ccccc2F)c2ccccc21)NC1CC1	-10.5	-4.3%	14.8%	0.6%
COC(=O)c1ccccc1NC(=O)N1C[C@@H]2C[C@@H](C1)c1cccc(=O)n1C2	.	-3.0%	-13.1%	-0.5%
Cc1ccc(-n2c(O)c(C=Nc3ccc(Br)cn3)c(=O)[nH]c2=O)cc1	1.9	-1.5%	7.1%	-1.4%
COc1cccc(C2(O)CCN(Cc3ccncc3)CC2)c1	6.1	0.7%	5.5%	-1.5%
COP(=S)(OC)SCn1nnc2ccccc2c1=O	-3.4	3.8%	1.3%	.

These rows are one share of the data, so the mix of outcomes need not match the whole.
